H5N1 CPE – MDCK cell protection from H5N1 avian flu. cytopathic effect, luminescence, 72 h; active compounds read high; no value below 0 was filed and about half of the inactive calls have no number; reference of the scale not given here. inhibition, % at 50 µM. hit rate 0.07% among 96,000. AID 740; in the data active = inhibition above about 25%
Numbers without * were called inactive; i = inactive. This is a subset; count on the stated rates, not on these rows.

SMILES | H5N1 CPE
COc1ccc2nc(NC(=O)CSC3=NCCS3)sc2c1 | i
Cc1ccc(NC(=O)CSc2nnc(-c3ccc(S(=O)(=O)N4CCOCC4)cc3)n2C)cc1 | 3.7
CC(C)(C)c1ccc(C2(C)NC(=O)N(CC(=O)Nc3ccc4c(c3)OCO4)C2=O)cc1 (stereo not drawn) | i
O=c1[nH]c(CN2CCN(C/C=C/c3ccccc3)CC2)nc2cc(Cl)ccc12 | i
CCn1c(NC(=O)c2ccccc2)c(-c2cccs2)c(=O)c2ccccc21 | 0.6
CCOc1ccc(/C=N/NC(=O)C(C)N(c2ccc(OC)cc2)S(C)(=O)=O)cc1 (stereo not drawn) | i
O=C(CCN1CCCCC1)c1ccc2c(c1)OCCO2 | 0.9
COC(=O)c1ccc(CSc2ccc3nnc(-c4ccccn4)n3n2)o1 | 8.1
COCCNC(=O)CS(=O)Cc1nc(-c2ccccc2C)oc1C (stereo not drawn) | i
NC(=O)N1OCC2COc3ccc4ccccc4c3C21 (stereo not drawn) | 0.6
CC1CN(c2nc(-c3ccccc3)nnc2-c2ccccc2)CC(C)O1 (stereo not drawn) | 1.9
O=C(Cc1cccs1)NCc1cccnc1 | i
O=C(OCCNC(=O)c1cc2ccccc2oc1=O)c1cccnc1 | 0.2
CCCOc1ccc(N2C(=O)CC(N3CCN(S(=O)(=O)c4ccccc4)CC3)C2=O)cc1 (stereo not drawn) | 0.5
O=C(Nc1nnc(-c2ccc(Cl)cc2)o1)c1ccccc1Br | 0.1
COc1ccc(NC(=O)COC(=O)[C@@H]2CCCN2C(=O)c2cccs2)c(OC)c1 | i
O=C(NC1CC2CCC(C1)N2Cc1nnnn1Cc1ccco1)NC12CC3CC(CC(C3)C1)C2 (stereo not drawn) | 4.7
NNC(=O)COc1ncn(-c2ccccc2)n1 | 1.2
Fc1ccc2[nH]c3c(N4CCSCC4)ncnc3c2c1 | 6.6
Cc1c(Br)c([N+](=O)[O-])nn1C(C)C(=O)Nc1c(C)n(C)n(-c2ccccc2)c1=O (stereo not drawn) | i
COc1ccccc1CNC(=O)CCS(=O)(=O)c1ccc2c(c1)CCCN2C(C)=O | i
CC(NC(=O)NC12CC3CC(CC(C3)C1)C2)C1CCCO1 (stereo not drawn) | i
CN(CC(=O)Nc1ccc(C#N)cc1)Cc1ccc(Cl)cc1Cl | 1.8
CC(c1ccco1)N(Cc1ccco1)C(=O)Nc1ccccc1 (stereo not drawn) | 1.9
Cc1ccc2cccc(S(=O)(=O)N3CCN(c4ccccc4F)CC3)c2n1 | i
C=Cc1cccc(NC(=O)COc2ccccc2)c1 | i
O=C(Cn1nnc(-c2ccccc2)n1)NCc1ccco1 | 0.5
C=CCn1c(CNC(=O)c2ccco2)nnc1SCC(=O)Nc1cccc(Br)c1 | 0.6
Cc1nc2ccc(S(=O)(=O)NC(CC(C)C)C(=O)O)cc2s1 (stereo not drawn) | i
COc1nc(OCCNC(=O)Nc2ccccc2)nc(N(C)C)n1 | i
Cc1ccc(S(=O)(=O)CC(O)CN2CCCC2=O)cc1 (stereo not drawn) | i
Fc1cccc(CSc2ncnc3c2oc2ccccc23)c1 | 0.5
CCOC(=O)C(CCCCCOc1ccc([N+](=O)[O-])cc1)C(=O)OCC | 0.6
COc1ccc(F)cc1S(=O)(=O)Nc1ccc2c(c1)OCO2 | 0.3
CCOC(=O)C(C)n1nc(/C=C/c2ccccc2)ccc1=O (stereo not drawn) | i
COc1cccc(NC(=O)N2CCN(c3cccc(C)c3)C(C)C2)c1 (stereo not drawn) | i
O=C(CSCc1ccc([N+](=O)[O-])cc1)Nc1cccc(C(=O)Nc2ccccc2C(=O)O)c1 | i
O=c1cc(NCCCO)c2ccccc2o1 | i
CC(=O)Nc1nc2ccccc2n1CCOc1ccccc1Cl | i
CC1=CCC2C(=O)N(c3ccc(C)c(Br)c3)C(=O)C2C1 (stereo not drawn) | 0.8
O=C(c1ccc(Br)s1)N1CCN(c2ncccn2)CC1 | i
Cc1cc(-c2nnc3n2N=C(C(C)(C)C)CS3)n[nH]1 | 3.8
C=CCNC(=S)NNC(=O)c1ccc(OCC(C)C)cc1 | i
O=C(CCN1C(=O)CSC1=O)Nc1ccccc1 | 0.1
CCOc1nnc(C)c2c(C)n(-c3cccc(OC)c3)nc12 | 0.6
CCCNC(=O)N1CCC(C(=O)c2ccc(Cl)cc2)CC1 | 0.3
Cc1sc2nc(SCC(=O)N(C)C)[nH]c(=O)c2c1C | 1.2
O=C1NCCCC1C(=O)N/N=C/c1ccccc1 (stereo not drawn) | 1.3
Cc1ccc2cc3cc(C(=O)NCc4ccc5c(c4)OCO5)oc3nc2c1 | i
COc1cccc(Cn2c(-c3cccs3)noc2=O)c1 | i
Cc1ccc2cc(C(c3nnnn3Cc3ccccc3)N3CCN(c4ccccc4)CC3)c(=O)[nH]c2c1 (stereo not drawn) | i
CC(=Nc1ccc2c(c1)CCC2)c1c(O)n(C2CCCCC2)c(=O)[nH]c1=O | 0.1
COC(=O)CSc1nnc(-c2ccccn2)n1Cc1ccco1 | i
Cc1ccc(-n2cnnn2)c(S(=O)(=O)N2CCOCC2)c1 | 2.2
O=C(CN(c1ccc2c(c1)OCCO2)S(=O)(=O)c1ccccc1)NCc1ccco1 | 3.1
Cc1cc(NC(=O)C2CCC2)n(-c2ccccn2)n1 | 0.3
Cc1ccc(-n2nc3c(c2NC(=O)c2ccc(Br)o2)CSC3)c(C)c1 | 0.7
CN1C(=O)/C(=C/c2cccn2-c2ccc3ccccc3c2)C(=O)NC1=S | 1.5
CCOC(=O)C(C)c1c(C)[nH]c(=S)[nH]c1=O (stereo not drawn) | i
CCCn1c2ccccc2c2nc3ccccc3nc21 | 0.6

Exported with tabs: part of the list above.
SMILES	H5N1 CPE
O=C(CCN1C(=O)CSC1=O)Nc1ccccc1	0.1
CCOc1nnc(C)c2c(C)n(-c3cccc(OC)c3)nc12	0.6
CCCNC(=O)N1CCC(C(=O)c2ccc(Cl)cc2)CC1	0.3
Cc1sc2nc(SCC(=O)N(C)C)[nH]c(=O)c2c1C	1.2
O=C1NCCCC1C(=O)N/N=C/c1ccccc1 (stereo not drawn)	1.3
Cc1ccc2cc3cc(C(=O)NCc4ccc5c(c4)OCO5)oc3nc2c1	i
COc1cccc(Cn2c(-c3cccs3)noc2=O)c1	i
Cc1ccc2cc(C(c3nnnn3Cc3ccccc3)N3CCN(c4ccccc4)CC3)c(=O)[nH]c2c1 (stereo not drawn)	i
CC(=Nc1ccc2c(c1)CCC2)c1c(O)n(C2CCCCC2)c(=O)[nH]c1=O	0.1
COC(=O)CSc1nnc(-c2ccccn2)n1Cc1ccco1	i
Cc1ccc(-n2cnnn2)c(S(=O)(=O)N2CCOCC2)c1	2.2
O=C(CN(c1ccc2c(c1)OCCO2)S(=O)(=O)c1ccccc1)NCc1ccco1	3.1
Cc1cc(NC(=O)C2CCC2)n(-c2ccccn2)n1	0.3
Cc1ccc(-n2nc3c(c2NC(=O)c2ccc(Br)o2)CSC3)c(C)c1	0.7
CN1C(=O)/C(=C/c2cccn2-c2ccc3ccccc3c2)C(=O)NC1=S	1.5
CCOC(=O)C(C)c1c(C)[nH]c(=S)[nH]c1=O (stereo not drawn)	i
CCCn1c2ccccc2c2nc3ccccc3nc21	0.6

(cont.)
SMILES | H5N1 CPE
COc1ccc(NC(=O)[C@H](CCS(C)(=O)=O)N2Cc3ccccc3C2=O)c(OC)c1 | i
CCCCC(c1nnnn1CC1CCCO1)N1CCN(c2cccc(C)c2C)CC1 (stereo not drawn) | 3.0
Cc1cc(C)c2cc(CN(Cc3ccc4c(c3)OCO4)Cc3nnnn3Cc3ccco3)c(=O)[nH]c2c1 | i
CC1Cc2cc(/C(O)=C3\C(=O)C(=O)N(CCN4CCOCC4)C3c3ccccc3F)ccc2O1 (stereo not drawn) | 1.0
COC(=O)c1c(C(=O)OC)n(CCCN)c2ccc(C)cc12 | i
COc1cc(Cl)c(C)cc1NC(=O)CNC(=O)Cn1cnc2ccccc2c1=O | i
Cc1ccc2nsnc2c1S(=O)(=O)N1CCN(Cc2ccc3c(c2)OCO3)CC1 | 0.9
Cc1cccc(C)c1NC(=S)NN(Cc1ccccc1)c1ccccc1 | 0.8
COc1ccc(COC(=O)c2nc3nc(C)cc(C)n3n2)cc1F | 1.6
CCN(C(=O)COc1cc(=O)n(CC)c2ccccc12)c1cc(Cl)ccc1OC | 0.7
CCOC(=O)C1C(=O)C=C(c2ccc(OC)cc2)CC1c1ccco1 (stereo not drawn) | 1.5
Brc1cccc(-c2nnc(SCc3nc4ccccc4[nH]3)o2)c1 | i
CCn1c(SCc2nc(-c3cccs3)no2)nnc1-c1c[nH]c2ccccc12 | 0.2
Nc1ccc(-c2nc3ccccc3[nH]2)cc1 | 2.3
CCOc1ccc(C(=O)N/N=C/c2ccc(-c3ccc(S(=O)(=O)Nc4ncccn4)cc3)o2)cc1 | 2.5
O=C(COC(=O)C1(c2ccc(F)cc2)CCCC1)NC1CC1 | 0.4
CC(C)(C)Nc1nc2nonc2nc1NC(C)(C)C | i
Cc1nc2nc(CCc3ccccc3)nn2c(C)c1Cl | i
CCC1CCc2c(sc(NC(=O)CSc3nc(-c4ccco4)cc(C(F)(F)F)n3)c2C#N)C1 (stereo not drawn) | i
Cc1ccc(S(=O)(=O)N2CCC(C(N)=O)CC2)c(C)c1C | 0.3
Nc1ccccc1-c1nnc(-c2ccc(-c3ccccc3)cc2)o1 | i
CCN(CCNC(=O)c1cc(C)nn1-c1ccccc1)c1ccccc1 | 2.5
CN1CCN(C(=O)c2ccc3c(=O)n(Cc4ccco4)c(=S)[nH]c3c2)CC1 | 0.9
C/C(=C\c1ccccc1)CN1CCN(c2ccccc2F)CC1 | 1.1
Cc1ccc(CON=C2CCN(c3ncc(C(F)(F)F)cc3Cl)CC2)cc1 | i
COC(=O)c1ccc(N2CCN(S(=O)(=O)c3c(C)cc(C)cc3C)CC2)c([N+](=O)[O-])c1 | 0.1
Cc1noc(C)c1S(=O)(=O)N1CCC2(CC1)OCCO2 | i
Cc1ccc(S(=O)(=O)Cc2ccc(C(=O)N3CCC4(CC3)OCCO4)o2)cc1 | 1.0
CC(C)Oc1c(Cl)cc(CNC(C)(C)CO)cc1Cl | i
O=C(NC1CCCCCC1)C1CCN(C(=O)Cc2ccccc2)CC1 | i
c1ccc(C2=Nc3ccccc3OC2)cc1 | 2.6
Cc1nn(C)c(C)c1S(=O)(=O)N1CCCC(C(=O)NCC2COc3ccccc3O2)C1 (stereo not drawn) | i
COc1ccc(-c2csc(N(CC3CCCO3)C(=O)c3cccs3)n2)cc1 (stereo not drawn) | 1.3
Cc1ccc(S(=O)(=O)Nc2ccc3nc(C)sc3c2)cc1 | i
CCOC(=O)c1cc(NC(=O)N2CCCc3ccccc32)c(C)nc1C | 3.1
Cc1ccc(NC(=S)NCc2cccnc2)cc1 | 0.1
COCCCn1c2nc3ccccc3nc2c2c(=O)n(Cc3cccs3)cnc21 | 2.8
CCc1cccc(NC(=O)c2ccc(NS(=O)(=O)c3c(C)noc3C)cc2)c1 | 3.3
C=CCNC(=O)CCCCCNS(=O)(=O)c1ccc(OC)cc1 | 0.2
O=C(Cn1cnc2ccccc2c1=O)NCC(=O)N1CCC2(CC1)OCCO2 | i
CCCc1c(C)[nH]c2ccccc2c1=O | 0.2
Cc1cc(C)n(C(=O)CN2C(=O)CCC2=O)n1 | 0.8
COc1ccccc1N(CC(=O)N/N=C/c1ccc(OCC(=O)NCc2ccco2)cc1)S(=O)(=O)c1ccc(C)cc1 | 0.2
CCOC(=O)N1CCN(S(=O)(=O)c2ccc(OCC(=O)OC)c(Cl)c2)CC1 | 1.1
COc1ccc2c(c1)c(C(=O)OCCN(C)C)c(C)n2C | i
N#CCSc1nnc2sc3ccccc3n12 | 1.2
CCOC(=O)C1C(=O)NC(N2CCCCC2)=NC1c1ccco1 (stereo not drawn) | i
Cc1cccnc1NCC(O)COc1ccccc1 (stereo not drawn) | i
Cc1nnc(SCc2ccc(F)cc2Cl)s1 | 0.9
COc1cc(OC)cc(C(=O)Nn2c(C)nc3ccccc3c2=O)c1 | 0.2
O=C(NC1CCCC1)C(c1ccc(F)cc1)N(Cc1ccc(F)cc1)C(=O)c1ccn[nH]1 (stereo not drawn) | i
CC(C)COC(=O)NCCOC(=O)Nc1cccc(Cl)c1 | i
O=C(OCC(=O)N1c2ccccc2Sc2ccccc21)C1CC(=O)N(Cc2ccco2)C1 (stereo not drawn) | 1.2
CCN(CC)C(=O)C1CC(c2ccc(OC)cc2)=NO1 (stereo not drawn) | 1.4
COCCCNC(=O)CC(NS(=O)(=O)c1ccc(C)cc1)c1ccc(OC)cc1 (stereo not drawn) | 1.2
N#CC1=C(Nc2ccc(Br)cc2)CCC1 | 0.5
COc1ccc(-c2nc3nc(C)cc(C)n3n2)cc1 | 0.3
COCC(=O)NC(c1ccccc1)c1ccccc1 | i
Cc1nc2c(C(=O)NCc3ccccc3)c[nH]n2c(=O)c1Cl | i
C=CCn1c(Cc2c[nH]c3ccccc23)nnc1SCC(=O)NCc1ccccc1 | 1.0

The list goes on.
SMILES | H5N1 CPE
CCOc1ccc(NS(=O)(=O)c2ccc3[nH]cc(C(=O)NCC4CCCO4)c(=O)c3c2)cc1 (stereo not drawn) | 0.1
CC(=O)c1c(C)[nH]c(C(=O)N2c3ccccc3CC2C)c1C (stereo not drawn) | 0.1
FC(F)(F)c1nnc2c(Sc3ccc(Cl)cc3)nc3ccccc3n12 | 0.1
O=C1NC(=O)/C(=C/c2ccccc2Oc2ccc(Cl)cc2)S1 | i
Cc1ccc(OCc2nnc(NC(=O)OCC(C)C)s2)cc1 | 1.3
N#Cc1nc(-c2cccc(Cl)c2)oc1NCc1cccnc1 | i
COc1ccc(C2(O)CCN(Cc3nnnn3Cc3ccc(C)cc3)CC2)cc1 | i
CC(C(=O)N1CCCCC1)N1C(=O)c2ccccc2C1=O (stereo not drawn) | i
COc1ccc(NC(=O)CCNS(=O)(=O)c2ccc3c(c2)c(=O)n(C)c(=O)n3C)cc1 | i
CCSc1nc(N)c(C#N)c(-c2ccccc2Cl)c1C#N | 1.5
CCc1nnc(SCC(=O)NC2CCCC2)nc1CC | i
O=C(OCc1ccccc1)c1ccc2c(c1)-c1ccccc1C2=O | i
O=C(Nc1cccc(-c2cnc3ccccc3n2)c1)c1ccccc1 | 1.0
c1cc2c3c(cccc3c1)C(N1CCCCC1)=N2 | 2.3

An excerpt of these results, as tab-separated lines:
molecule	H5N1 CPE
CC(=O)c1c(C)[nH]c(C(=O)N2c3ccccc3CC2C)c1C (stereo not drawn)	0.1
c1cc2c3c(cccc3c1)C(N1CCCCC1)=N2	2.3

Compound activity: PubChem BioAssay, SRMLSC
